PABP FP inh – PABP-poly(A) binding inhibition; inhibition, % at 35 µM; AID 2014; 290,000 compounds, 1% hits; P11940; PABP-poly(A) RNA binding, fluorescence polarization;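 active = 50% or more with normal probe brightness, or confirmed in later tests; inconclusive = above 50% with abnormal brightness, or retests that disagree; inactive = below 50% or failed in later tests; about a fifth of its hits are not listed in these tables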;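 also: calls also rest on retests at 20 µM and on dose response follow-up; controls were probe without protein and protein plus probe with vehicle; some compounds called inactive have numbers as strong as hits; many hits fall short of the cut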
Target sequence (P11940 whole entry, looked up): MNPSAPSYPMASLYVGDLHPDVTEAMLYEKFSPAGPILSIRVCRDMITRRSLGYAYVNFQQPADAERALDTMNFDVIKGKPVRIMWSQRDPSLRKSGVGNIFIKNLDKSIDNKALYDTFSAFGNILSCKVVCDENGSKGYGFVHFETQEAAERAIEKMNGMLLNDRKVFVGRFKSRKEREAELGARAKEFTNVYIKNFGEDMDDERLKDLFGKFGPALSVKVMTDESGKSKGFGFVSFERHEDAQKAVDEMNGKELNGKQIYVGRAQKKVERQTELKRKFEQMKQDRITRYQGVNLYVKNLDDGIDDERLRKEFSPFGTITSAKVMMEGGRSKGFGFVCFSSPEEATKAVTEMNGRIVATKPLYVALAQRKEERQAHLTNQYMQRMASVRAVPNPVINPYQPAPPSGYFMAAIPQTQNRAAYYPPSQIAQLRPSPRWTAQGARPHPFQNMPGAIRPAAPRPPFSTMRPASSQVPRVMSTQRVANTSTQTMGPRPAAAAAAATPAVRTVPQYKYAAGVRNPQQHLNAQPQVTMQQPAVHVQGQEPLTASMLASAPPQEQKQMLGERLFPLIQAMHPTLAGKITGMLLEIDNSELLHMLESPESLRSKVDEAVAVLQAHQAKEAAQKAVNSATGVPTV
eIF4H inh – inhibitors of RNA binding by human eIF4H; Q15056; eIF4H fluorescence polarization binding assay; inhibition, % at 35 µM; 290,000 compounds, 0.94% hits;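 active = 50% or more with normal probe brightness, or confirmed in later tests; inconclusive = above 50% with abnormal brightness, or retests that disagree; inactive = below 50% or failed in later tests; about a fifth of its hits are not listed in these tables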;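 also: calls also rest on retests at 20 µM and on dose response follow-up; 0% = protein and probe with vehicle and 100% = probe without protein; strong numbers were not always called active; many hits fall short of the cut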
Rce1 inhib – inhibitors of yeast Ras-converting enzyme | calls only | yeast membranes, quenched prenylated peptide cleavage fluorescence | 290,000 compounds, 0.27% hits | Q03530;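 active = fall in fluorescence gain of 50% or more versus controls, with final raw signal at or below 3038400; inconclusive = same 50% fall but final raw signal above 3038400; inactive = fall in fluorescence gain under 50%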;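 also: plate controls were neutral control wells for no effect and wells lacking membranes for full effect; tested at 10 µM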
Target sequence (Q03530 whole entry, looked up): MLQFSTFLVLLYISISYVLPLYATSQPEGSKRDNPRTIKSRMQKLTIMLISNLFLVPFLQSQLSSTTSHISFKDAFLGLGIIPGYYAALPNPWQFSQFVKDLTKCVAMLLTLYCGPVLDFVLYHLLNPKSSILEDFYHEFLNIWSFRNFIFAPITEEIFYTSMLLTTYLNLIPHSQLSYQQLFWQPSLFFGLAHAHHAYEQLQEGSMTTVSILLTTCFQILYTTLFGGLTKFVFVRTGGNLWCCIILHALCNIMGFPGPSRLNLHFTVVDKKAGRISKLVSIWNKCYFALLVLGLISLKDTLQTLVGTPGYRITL
Yeast UUG start – alters start codon recognition fidelity in yeast | S. cerevisiae UUG-firefly luciferase reporter, luminescence/redox ratio | activity score, % at 18.7 µM | 350,000 compounds, 0.13% hits;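 active = replicate mean at a twofold rise or more, about +100% in these data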;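 also: firefly luciferase made from a UUG start codon reports start codon fidelity; reporter light over untreated wells divided by growth signal over untreated wells; some hits fall short of that in this replicate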
CSC inhib – blocks cancer stem cells; cancer stem cell-like cells viability, luminescence; inhibition, % at 7.5 µM; 300,000 compounds, 1.1% hits;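 active = mean at 75% or more and at least half the replicates too; inconclusive = mean and replicates disagree; tested in HMLE shEcad cells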;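 also: 0% = median of negative and 100% = median of positive control wells; the first replicate is given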
MT1-MMP act inh – MT1-MMP (human) activation inhibition | P50281 | HT1080 RFP-PRO-GFP cells, GFP/RFP ratio fluorescence, overnight; percent of plate control window, DMSO zero | GFP/RFP ratio change, % at 20 µM | 360,000 compounds, 0.061% hits;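 active = GFP/RFP ratio change of at least 30% with cell ATP level not reduced by more than half and red fluorescence within 50% of control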; also: strong numbers were not always called active
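Assay system: HT1080 cells carrying an RFP-PRO-GFP reporter | Dosing: Single dose of 20 µM compound, 1% DMSO final | Incubation: Cells overnight before dosing, compound overnight, 37 °C, 5% CO2 | Evaluation: GFP/RFP fluorescence ratio | Control set: DMSO and RFP-L50D-GFP cell wells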
Env fusion inh – blocks HIV Env-driven cell-cell fusion; inhibition, % at 12.3 µM; HeLa-JRFL Env/CEM21 cell fusion, luciferase; 360,000 compounds, 1.1% hits;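 active = mean replicate inhibition score of at least 50 and every replicate individually at or above 50; inconclusive = only one of the two criteria met; inactive = mean below 50 and not all replicates reaching 50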;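 also: 0% = plate neutral controls and 100% = maraviroc near 300 nM; one replicate is shown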
MT1-MMP act inh RFP – second read-out of MT1-MMP act inh, no call of its own (marks repeat the call); RFP signal change, %; measured here: RFP expression control read;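 0 = vehicle wells; hits needed this value within 50% of zero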
* hit, by the source's call; i = inactive; ? = inconclusive; . = not tested or not shown.

molecule	CSC inhib	MT1-MMP act inh	MT1-MMP act inh RFP	PABP FP inh	Env fusion inh	Yeast UUG start	eIF4H inh	Rce1 inhib
O=C(NCc1cccs1)C1CCCN(C(=O)Nc2ccccc2)C1 (stereo not given)	-5	2	1	7	-14	-19	-11	i
COCCCn1c(=O)c2ccccc2n(Cc2ccccc2)c1=O	-5	-4	0	1	-93	20	-4	i
CCNc1nc(NC#N)nc(SCC(=O)OCC)n1	-3	1	5	-2	.	-6	-13	i
COc1ccc(C2C(C(=O)NCCN3CCOCC3)c3ccccc3C(=O)N2C)cc1OC (stereo not given)	-12	1	2	8	-26	16	-5	i
COc1cc(Br)c(C(C)NC(=O)c2cccc(Br)c2)cc1OC (stereo not given)	-22	12	-4	-4	5	-9	-5	i
O=S1(=O)CC(N2CCCCC2)CN1CCc1ccccc1 (stereo not given)	.	3	2	.	-2	-11	.	.
Cc1cc2c(cc1C)C(c1ccccc1OC(C)C)CC(=O)N2 (stereo not given)	96*	-3	-19	-10	-12	-12	-13	i
CN(Cc1ccccc1)C(=O)c1ccc(NC(=O)Cc2ccc(NC(=O)C3CCCN(C(=O)C4CC4)C3)cc2)cc1 (stereo not given)	.	2	-9	.	20	-3	.	.
COc1cccc(C(=O)N2CCN(Cc3ccccn3)CC2)c1	-16	1	3	-2	-11	-4	9	i
O=C(c1cc2ccccc2cc1O)N1CCN(c2ccccc2O)CC1	-14	1	0	.	-80	15	.	i
COc1ccc(CCNC(=O)CN2CCC(C)CC2)cc1OC	-16	-5	-2	15	-5	0	-4	i
Cc1nc(-c2cccc(N)c2)cs1	-1	-2	4	-17	-4	-20	-2	i
COc1ccc(CCNC(=O)c2ccccc2)cc1	5	0	-3	-3	-20	-1	13	i
CCc1nc2ccc(C(=O)Nc3ccc(OC)c(OC)c3)cn2c1N(CCC(C)C)CCN(C)C	.	-2	-6	.	0	-18	.	.
CCCCNC(=O)C1CCN(C(=O)C2CCN(S(=O)(=O)c3ccc(C)cc3)CC2)CC1	-6	0	2	-5	3	11	-11	i
COc1ccc(OC(=O)c2cnn(-c3ccccc3)c2C)cc1	6	3	3	-2	.	-21	-7	i
COCC1CCCN(C(=O)c2ccc3oc(CCCc4ccccc4)nc3c2)C1 (stereo not given)	3	3	-9	7	-10	12	-9	i
Cc1n[nH]c(=O)c2c(NC(=O)CSc3nc4ccccc4c(=O)n3CCCOC(C)C)oc(C)c12	-18	2	3	3	.	18	-9	i
CCc1ccc(C(=O)NNc2ccc(C)c(Cl)c2)cc1	41	2	1	-1	-1	-10	4	i
CCc1cccc(NC(=S)N(CCCN2CCOCC2)C(C)c2cc3cccc(OC)c3o2)c1 (stereo not given)	-7	1	2	2	4	-1	1	i
CC(=O)Oc1ccc(Cn2c(C)c(C(=O)NC3CC3)sc2=O)cc1	.	6	4	.	2	-21	.	.
COCCCNc1nc2ccccc2nc1NS(=O)(=O)c1ccc(C)cc1	1	-3	1	6	-2	1	11	i
C=CCNCCCOc1ccc(C)cc1Br	6	4	3	-26	5	.	1	i
Cn1c(SCCOc2ccc(Cl)cc2)nnc1-c1ccncc1	49	5	4	-11	-47	-15	-17	i
CC(=O)C1=C(O)CC(C)(C)CC1=NCc1nc2ccccc2[nH]1	-8	1	-1	?	4	7	-6	i
CCCc1cc(C(=O)Nc2sc3c(c2C#N)CCC3)no1	45	-13	-7	3	20	-34	13	i
O=C(CSc1nnc(-c2ccccc2)o1)NC1CCCC1	5	-1	-3	.	2	-31	.	i
COc1ccc(NC(=O)C(=O)NCc2ccncc2)c(OC)c1	-10	0	-3	6	-63	-22	14	i
O=C(CNC(=O)c1ccc(OC(F)F)cc1)NCc1ccccn1	-10	1	6	.	-3	-21	.	i
COc1ccc(-c2[nH]ncc2CN2CCCCCCC2)c(OC)c1	3	5	2	?	2	.	26	i

An excerpt from the list above, as a working copy:
molecule	CSC inhib	MT1-MMP act inh	MT1-MMP act inh RFP	PABP FP inh	Env fusion inh	Yeast UUG start	eIF4H inh	Rce1 inhib
O=C(CNC(=O)c1ccc(OC(F)F)cc1)NCc1ccccn1	-10	1	6	.	-3	-21	.	i
COc1ccc(-c2[nH]ncc2CN2CCCCCCC2)c(OC)c1	3	5	2	?	2	.	26	i

Additional structures:
molecule	CSC inhib	MT1-MMP act inh	MT1-MMP act inh RFP	PABP FP inh	Env fusion inh	Yeast UUG start	eIF4H inh	Rce1 inhib
O=C(Cc1ccc(NC(=O)C2CCN(C(=O)C3CCCCC3)CC2)cc1)Nc1ccc(C(=O)N2CCOCC2)cc1	.	-1	-1	.	13	-2	.	.
Cc1ccccc1C(=O)Nc1ccnn1C1CCN(C(=O)c2ccoc2)CC1	-11	2	5	6	-16	-6	-3	i
COCC(=O)N1CCC(Oc2ccc(C(=O)N(C)CCCC3CCCC3)cc2)CC1	6	1	-9	1	4	-3	-16	i
Cc1ccc(-c2ccc(S(=O)(=O)N3CCN(C)CC3)cc2)cc1	-7	5	5	4	7	33	10	i
COc1ccc(CCNC(=O)c2cnc3scc(C)n3c2=O)cc1OC	-11	4	0	4	36	-8	-2	i
Cc1ccc(/C=N/n2c(C)nc3ccccc3c2=O)s1	-13	.	.	-2	.	.	2	i
CC(C)OC(=O)c1cccc(-c2ccc(C=O)o2)c1	-6	3	0	-7	.	.	4	i
O=C(Nc1cccc(Cl)c1)C1CCN(C(=O)c2cccs2)CC1	-5	3	-1	-9	-13	-7	-8	i
O=C(NC(=S)Nc1cc(C(F)(F)F)ccc1N1CCOCC1)c1sc2ccccc2c1Cl	35	4	2	-11	-7	.	0	i
O=C(c1cc(=O)c2ccccc2o1)N1CCCc2ccccc21	3	-11	0	-17	-7	-10	-6	i
CC(=O)Nc1ccc(/C=C(\C#N)S(=O)(=O)c2ccc(C)cc2)cc1	1	-2	1	.	11	-14	.	.
CC(=O)N1[C@H](Cc2ccccc2)C=C[C@]1(C)C(=O)NCc1ccc(C)o1	-8	-7	3	0	.	3	-6	i
NC(=O)c1ccsc1NC(=O)C1CC1	-9	2	5	14	7	-10	-9	i
O=C1CC(N2CCCc3ccccc32)C(=O)N1c1ccccc1 (stereo not given)	13	1	3	-2	-25	-13	4	i
CN1CCc2c(n(CC(O)CN3CCN(CCO)CC3)c3ccccc23)C1=O (stereo not given)	-11	4	4	7	5	.	-1	i
O=C(Cc1cccs1)NC(Cc1c[nH]c2ccccc12)C(=O)O (stereo not given)	0	3	7	1	0	.	-12	i
CCC1(C)Cc2ccccc2-c2[nH][nH]c(=O)c21 (stereo not given)	6	-3	0	-5	-13	.	2	i
COc1cc2c(cc1NC(=O)c1cccc(S(=O)(=O)N(C)C)c1)oc1ccccc12	126*	0	-16	10	24	-8	-12	i
CC(=O)c1ccc(NS(=O)(=O)c2cccc(C(=O)Nc3ccccc3C(=O)O)c2)cc1	-12	-1	-4	22	-13	2	1	i
O=C(c1ccc(S(=O)(=O)N2CCOCC2)cc1)N(c1ccc(F)cc1)C1C=CS(=O)(=O)C1 (stereo not given)	-12	5	2	22	.	-16	-10	i
O=C(c1cnccn1)N1CCN(C/C=C/c2ccccc2)CC1	-29	2	5	-8	.	-14	4	i
Cc1ccc(-c2cccc([C@H]3[C@@H]4C=CC[C@@H](C)[C@@H]4C(=O)N3Cc3ccccc3)c2)cc1	.	-15	-20	.	-9	-9	.	.
Cc1c(NC(=O)c2cc(-c3ccc(Cl)s3)nc3ccccc23)c(=O)n(-c2ccccc2)n1C	1	7	0	8	.	-4	-2	i
CC(=O)c1coc2ccc(OCC(=O)O)cc12	-16	7	2	0	-107	-14	20	i
CCC(C)NC(=O)c1cc(-c2ccc3c(c2)OCO3)on1 (stereo not given)	6	-1	0	2	-79	-26	0	i
COc1ccc(NC(=O)C2CCN(S(=O)(=O)c3cccc4nonc34)CC2)cc1	-5	-2	-1	13	6	3	1	.
Cc1ccc(NC(=S)NC(=O)c2ccc(F)cc2)cc1S(=O)(=O)Nc1cccc(Cl)c1	60	-2	-19	-1	-7	-23	4	i
Nc1ccc(Br)c2cccnc12	5	6	8	26	1	.	40	i
c1cc(-c2ccc3[nH]ccc3c2)n2ccnc2c1	.	2	-2	.	-347	-9	.	.
COC(=O)C1=CN(Cc2cccs2)C=C(C(=O)OC)C1c1ccc(OC)cc1OC	1	1	3	-2	14	.	-2	i

As entered above.
MT1-MMP act inh RFP with `COc1ccc(NC(=O)C(=O)NCc2ccncc2)c(OC)c1` is entered as -3
PABP FP inh with `C=CCNCCCOc1ccc(C)cc1Br` is entered as -26
Env fusion inh with `Cc1ccc(-c2cccc([C@H]3[C@@H]4C=CC[C@@H](C)[C@@H]4C(=O)N3Cc3ccccc3)c2)cc1` is entered as -9
MT1-MMP act inh RFP with `CCCc1cc(C(=O)Nc2sc3c(c2C#N)CCC3)no1` is entered as -7
PABP FP inh with `COc1ccc(CCNC(=O)CN2CCC(C)CC2)cc1OC` is entered as 15

Rewritten with values under each structure: 2 of the compounds above
Below each compound – CSC inhib, MT1-MMP act inh, MT1-MMP act inh RFP, PABP FP inh, Env fusion inh, Yeast UUG start, eIF4H inh, Rce1 inhib
- Cc1c(NC(=O)c2cc(-c3ccc(Cl)s3)nc3ccccc23)c(=O)n(-c2ccccc2)n1C
→ 1, 7, 0, 8, ., -4, -2, i
- COc1ccc(CCNC(=O)c2ccccc2)cc1
→ 5, 0, -3, -3, -20, -1, 13, i

Continued:
molecule	CSC inhib	MT1-MMP act inh	MT1-MMP act inh RFP	PABP FP inh	Env fusion inh	Yeast UUG start	eIF4H inh	Rce1 inhib
Cc1cc(C)cc(C(=O)Nc2ccc(N3CCCC3)cc2)c1	12	-1	4	-4	-95	.	6	i
Cc1ccc(NC(=O)c2cccc(S(=O)(=O)N3CCN(c4ccc(F)cc4)CC3)c2)nc1	.	-4	-17	10	21	-17	10	i
Fc1ccccc1-c1nc(N2CCCCC2)c2ccccc2n1	20	-3	-6	2	12	.	-4	i
O=C(Nc1ccc2c(c1)OCCO2)C1CCN(c2ncccn2)CC1	-12	3	7	0	-20	.	-15	i
O=C(c1ccc(C#CC2(O)CCCCC2)cc1)N1CCN(C(c2ccccc2)c2ccccc2)CC1	77*	-22	-17	-16	.	-9	-10	i
COC(=O)c1cnc(SCc2ccc([N+](=O)[O-])cc2)n1C	-10	2	1	1	-16	7	-9	i
CCCc1nnc(-c2ccc(OC)cc2)o1	-16	2	6	-7	-12	.	5	i
CCOC(=O)C(C)Oc1ccc(C2NC(=O)NC(C)=C2C(C)=O)cc1Br (stereo not given)	-14	-1	-4	2	.	-8	-6	i
C=C1CC2C(=O)N(Cc3ccccc3)C(C(=O)OCC)(C(=O)OCC)C1N2C(=O)OC(C)(C)C (stereo not given)	-3	-3	-2	.	15	-6	.	i
Cc1nc(N2C(=O)C(=O)/C(=C(/O)c3ccccc3)C2c2ccco2)sc1C (stereo not given)	-13	7	7	5	.	-21	-6	i
CCOC(=O)N1CCN(C(=O)CCn2nc(-c3ccccc3)ccc2=O)CC1	1	1	5	9	.	.	3	i
C=CCn1cc(CN2CCC(C(=O)Nc3cccc(-c4cccc(Cl)c4)c3)CC2)c(C)n1	28	1	-3	-8	10	-2	-4	i
CCOC(=O)CCn1c2nc(C)cc(C)c2c(=O)n1-c1ccccc1	-8	3	2	-4	19	-11	-5	i
COc1cc(C(=O)NCC(=O)N/N=C/c2ccc(-c3ccc([N+](=O)[O-])cc3)o2)cc(OC)c1OC	-1	5	-3	-9	11	5	-13	i
CCOc1ccc(C2C(C(=O)O)CCC(=O)N2C2CCCCC2)cc1 (stereo not given)	-3	8	6	-1	-10	.	-4	i

Screens as filed in PubChem.
